DUX4 txn inh: DUX4-mediated transcription inhibition | 293T-iDUX4 ZSCAN4-Gaussia luciferase reporter, 24 h; stronger effect = lower value | activity change, negative = inhibition, % (test concentration not listed) | 37,000 tested, 0.8% active | AID 1224904;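 active means -10% or lower and over 25 points stronger than a control reporter; inconclusive means -10% or lower with a smaller gap; inactive means above -10%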;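 further: 0% = median of neutral control wells and -100% = median of positive control wells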
DUX4 txn inh difference: also measured in DUX4 txn inh; calls as there; Gaussia minus Italica difference, %; measured here: selective DUX4 reporter inhibition;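 worked out from the two reporters; negative = selective loss of the DUX4 reporter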
DUX4 txn inh control: second read-out of DUX4 txn inh, no call of its own (marks repeat the call); activity change, negative = inhibition, %; measured here: Italica tet-on control reporter;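 0 = neutral control and -100 = positive control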
* = called active by the depositor; u = inconclusive; x = not tested or not shown; & = joins results of further samples.

no.	Compound	DUX4 txn inh	DUX4 txn inh difference	DUX4 txn inh control
1	CN(C)C(=O)c1cccc(-c2ccc3c(c2)[C@H]2[C@H](CCN2C(=O)Cc2ccccc2)[C@@H](CO)N3)c1	u	x	x
2	OC[C@@H]1[C@@H](c2ccccc2)C2(CN(Cc3cc(F)ccc3F)C2)N1CC1CCCC1	u	x	x
3	O=C(C[C@H]1CC[C@@H]2[C@H](COC[C@@H](O)CN2C(=O)Nc2ccc(Cl)cc2)O1)NC1Cc2ccccc2C1	-9	-8	-0.9
4	C[C@@H]1CN([C@H](C)CO)C(=O)CCCn2cc(nn2)CO[C@H]1CN(C)C(=O)Nc1cccc(C(F)(F)F)c1	-1	0	-1.5
5	CN(C)CC(=O)Nc1ccc2c(c1)[C@H]1C[C@@H](CC(=O)NCc3cc(F)ccc3F)O[C@@H](CO)[C@H]1O2	20	22	-1.9
6	C[C@H](CO)N1C[C@H](C)[C@H](CN(C)C(=O)Cc2ccccn2)Oc2ncc(C#CC3CCCC3)cc2C1=O	2	-2	4.3
7	OC[C@H]1[C@H](c2ccc(-c3cccnc3)cc2)[C@H]2CN(Cc3ccccn3)CCCCN21	22	17	4.9
8	C[C@H]1C/C=C\C[C@H](c2ccc3c(c2)OCO3)NC(=O)[C@H](c2ccccc2)CC(=O)N1	4	-3	7.6
9	CCC(=O)N1CC[C@H]2[C@@H]1c1cc(-c3ccc(OC)cc3)ccc1N(C)[C@H]2CO	17	47	-31
10	CO[C@@H]1CN(C)C(=O)c2cc(NC(=O)NC(C)C)ccc2OC[C@@H](C)N(C(=O)C2CCC2)C[C@H]1C	-5	-3	-2.0
11	C[C@@H]1CN([C@H](C)CO)C(=O)Cc2cc(NC(=O)Cn3cnnn3)ccc2O[C@@H]1CN(C)C(=O)Nc1ccc(C(F)(F)F)cc1	3	0	3.3
12	CO[C@@H](CN(C)C(=O)c1cnccn1)[C@@H](C)CN([C@H](C)CO)S(=O)(=O)c1ccc(Cl)cc1	8	5	2.2
13	O=C(C[C@@H]1C[C@H]2c3cc(NC(=O)C4CCOCC4)ccc3O[C@H]2[C@H](CO)O1)NCc1cccnc1	-2	-7	4.2
14	CNC[C@@H]1OCCCC[C@@H](C)Oc2ccc(NS(=O)(=O)c3ccc(F)cc3)cc2C(=O)N([C@@H](C)CO)C[C@@H]1C	-2	-5	2.1
15	COc1cccc(S(=O)(=O)N2C[C@H](O)COC[C@@H]3O[C@H](CC(=O)N4CCOCC4)CC[C@H]32)c1	11	-5	15
16	CO[C@@H]1CN(C)C(=O)c2cc(NC(=O)NC(C)C)ccc2OC[C@H](C)N(Cc2ccccc2)C[C@@H]1C	2	0	2.6
17	C[C@@H]1C(=O)N[C@H](c2ccc3c(c2)OCO3)CC=CC[C@H](C)Oc2ccccc2C(=O)N1C (mixture of isomers)	-2	5	-6.2
18	CN(C)CCCNC(=O)C[C@@H]1CC[C@H]2[C@@H](COc3ccc(NC(=O)c4cccc(F)c4)cc3C(=O)N2C)O1	1	-1	2.0
19	COc1ccc(S(=O)(=O)Nc2cccc3c2O[C@@H](CN(C)Cc2ccc(C(F)(F)F)cc2)[C@@H](C)CN([C@@H](C)CO)C3=O)cc1	2	3	-1.0
20	O=C(C[C@@H]1C[C@H]2c3cc(NC(=O)NC4CCCCC4)ccc3O[C@H]2[C@@H](CO)O1)NCc1ccccn1	0	-3	3.8
21	C[C@@H]1CCCCO[C@H](CN(C)C(=O)NC2CCCCC2)[C@@H](C)CN([C@H](C)CO)C(=O)c2cc(NC(=O)Nc3cccc4ccccc34)ccc2O1	6	4	1.5
22	CN(C)CC(=O)Nc1ccc2c(c1)[C@H]1C[C@H](CC(=O)NCc3cccc(F)c3)O[C@@H](CO)[C@H]1O2	1	-1	2.4
23	C[C@@H](NC(=O)[C@H]1[C@H](CO)[C@H]2Cn3c(ccc(-c4cccc(F)c4)c3=O)[C@H]2N1C)c1ccccc1	-3	0	-3.2
24	O=C(Nc1ccc(F)cc1)N1CC(=O)N2[C@H](C1)[C@H](c1ccc(Br)cc1)[C@@H]2CO	-2	0	-1.9
25	COc1cccc(S(=O)(=O)N[C@@H]2C=C[C@@H](CC(=O)NCc3ccncc3)O[C@@H]2CO)c1	-1	-4	3.4
26	O=C(C[C@@H]1C=C[C@@H](NC(=O)c2cccc(F)c2)[C@@H](CO)O1)Nc1nccs1	-4	-2	-1.6
27	Cc1cc(C(=O)Nc2ccc3c(c2)C(=O)N(C)[C@H]2CC[C@H](CC(=O)NC4CCCC4)O[C@H]2CO3)no1	5	1	3.4
28	C[C@@H]1CN([C@@H](C)CO)C(=O)c2cc(-c3ccc(C#N)cc3)cnc2O[C@@H]1CN(C)C(=O)CC1CC1	3	0	2.5
29	COc1ccc2c3c(n(C)c2c1)[C@@H](CO)N(C(=O)CC1CC1)CC31CN(Cc2ccccc2)C1	3	4	-0.4
30	CN(C)CC(=O)Nc1ccc2c(c1)C(=O)N(C)[C@H]1CC[C@H](CC(=O)Nc3cccc(Cl)c3)O[C@@H]1CO2	-2	-2	-0.2
31	COCC(=O)N1CCCCN2[C@H](CO)[C@@H](c3ccc(-c4cccc(C)c4)cc3)[C@H]2C1	24	-5	29
32	CCCC(=O)Nc1ccc2c(c1)C(=O)N(C)C[C@H](OC)[C@H](C)CN(C(=O)c1ccccn1)[C@@H](C)CO2	-1	-7	6.0
33	O=C(Nc1cc(F)ccc1F)N1CCCCN2[C@@H](CO)[C@@H](c3ccc(-c4cccnc4)cc3)[C@@H]2C1	9	4	4.2
34	Cc1noc(C)c1NC(=O)N(C)C[C@H]1Oc2ccc(NC(=O)Nc3ccc(C(F)(F)F)cc3)cc2C(=O)N([C@H](C)CO)C[C@@H]1C	1	-2	3.1
35	Cc1ccccc1-c1ccc([C@H]2[C@@H](CO)N3CCCCN(S(=O)(=O)c4ccc(F)cc4)C[C@H]23)cc1	u	x	x
36	O=C(Nc1cc(F)ccc1F)N1CCCCN2[C@H](C1)[C@@H](c1ccc(-c3cccnc3)cc1)[C@@H]2CO	-4	-18	14
37	CCC(=O)N1[C@H](CN(C)C(C)=O)[C@@H](c2ccc(-c3ccc(F)cc3)cc2)[C@@H]1CO	-5	-7	1.9
38	C[C@H]1CN([C@@H](C)CO)C(=O)c2c(c3ccccc3n2C)-c2ccccc2CO[C@H]1CN(C)C(=O)Nc1ccc2c(c1)OCO2	-8	12	-20
39	Cc1cccc(S(=O)(=O)N(C)C[C@@H]2OCc3cnnn3CCCC(=O)N([C@@H](C)CO)C[C@H]2C)c1	4	-3	7.6
40	C[C@@H]1CN([C@H](C)CO)C(=O)CCCn2cc(nn2)CO[C@@H]1CN(C)S(=O)(=O)c1ccc(C#N)cc1	-1	-2	0.5
41	O=C1CCC(=O)N[C@H](c2ccc3c(c2)OCO3)C/C=C\CCN1	7	31	-23
42	COCC(=O)N1CC2(CN(Cc3ccccc3)C2)c2c([nH]c3cc(OC)ccc23)[C@@H]1CO	5	-7	12
43	C[C@@H]1CN([C@H](C)CO)C(=O)c2cc(N(C)C)ccc2O[C@@H]1CN(C)S(=O)(=O)c1ccc(F)cc1	-1	-4	2.2
44	CC(C)NC(=O)Nc1ccc2c(c1)C(=O)N([C@H](C)CO)C[C@@H](C)[C@@H](CN(C)C(=O)Nc1ccc(F)cc1)O2	-2	-1	-1.0
45	CC(C)C#Cc1ccc([C@@H]2[C@@H](CO)N3C(=O)CN(C(=O)Cc4cccnc4)C[C@H]23)cc1	10	4	6.3
46	CCCC(=O)Nc1ccc2c(c1)C(=O)N(C)[C@H]1CC[C@H](CC(=O)O)O[C@@H]1CO2	0	-1	1.7
47	C/C=C/c1ccc2c(c1)O[C@H](CN(C)C(=O)Nc1ccc(OC)cc1)[C@@H](C)CN([C@@H](C)CO)S2(=O)=O	2	-1	3.5
48	N#Cc1ccc(-c2ccc(C3[C@@H]4CN(C(=O)c5ccccn5)C[C@H]3N4)cc2)cc1 (some centres not stated)	u	-14	12
49	CC(C)NC(=O)N1Cc2cc(C(=O)NC3Cc4ccccc4C3)nc(-c3cccc(-c4cccnc4)c3)c2[C@@H]1CCO	-2	0	-2.3
50	CCN(C[C@@H]1[C@H](c2ccccc2)[C@H](CO)N1C(C)=O)C(=O)c1ccccn1	-3	-3	0.5
51	O=C(C[C@H]1C[C@@H]2c3cc(NC(=O)NC4CCCC4)ccc3O[C@@H]2[C@H](CO)O1)NCC1CC1	2	1	0.7
52	C[C@@H](NC(=O)C[C@@H]1CC[C@@H]2[C@H](COC[C@H](O)CN2C(=O)Nc2cccc(F)c2)O1)c1ccccc1	1	-10	12
53	C[C@@H]1CN([C@@H](C)CO)S(=O)(=O)c2ccc(C#Cc3ccccc3F)cc2O[C@@H]1CN(C)C(=O)Cc1cccnc1	-4	-4	0.5
54	O=C(Nc1cccc(Cl)c1)N[C@H]1CC[C@@H](CCn2cc(Cc3ccccc3)nn2)O[C@@H]1CO	-4	4	-8.4
55	COc1ccc(CN2C[C@@H](C)[C@H](OC)CN(C)C(=O)c3cc(NC(=O)c4nc5ccccc5s4)ccc3OC[C@@H]2C)cc1	u	x	x
56	CC=Cc1ccc2n(c1=O)C[C@H]1[C@H](CO)[C@@H](C(=O)N[C@H](C)c3ccccc3)[C@@H]2N1CC (mixture of isomers)	-3	-12	9.2
57	O=C(Nc1ccc2c(c1)[C@H]1C[C@@H](CC(=O)N3CCc4ccccc4C3)O[C@H](CO)[C@H]1O2)c1ccc2c(c1)OCO2	u	x	x
58	COc1ccc2c3c(n(C)c2c1)[C@H](CO)N(C(=O)c1ccccn1)CC31CCN(C)CC1	10	-6	15
59	CO[C@H]1CN(C)C(=O)c2ccc(NS(=O)(=O)CC(F)(F)F)cc2OC[C@@H](C)N(Cc2nccs2)C[C@@H]1C	1	-1	1.9
60	Cc1ccc(S(=O)(=O)N2CC[C@@H]3[C@H]2c2cc(C#Cc4cccc(F)c4)ccc2N[C@@H]3CO)cc1	15	7	8.7

6 of the compounds above, with one line to a screen.
(48) N#Cc1ccc(-c2ccc(C3[C@@H]4CN(C(=O)c5ccccn5)C[C@H]3N4)cc2)cc1 (some centres not stated)
(41) O=C1CCC(=O)N[C@H](c2ccc3c(c2)OCO3)C/C=C\CCN1
(54) O=C(Nc1cccc(Cl)c1)N[C@H]1CC[C@@H](CCn2cc(Cc3ccccc3)nn2)O[C@@H]1CO
(42) COCC(=O)N1CC2(CN(Cc3ccccc3)C2)c2c([nH]c3cc(OC)ccc23)[C@@H]1CO
(52) C[C@@H](NC(=O)C[C@@H]1CC[C@@H]2[C@H](COC[C@H](O)CN2C(=O)Nc2cccc(F)c2)O1)c1ccccc1
(51) O=C(C[C@H]1C[C@@H]2c3cc(NC(=O)NC4CCCC4)ccc3O[C@@H]2[C@H](CO)O1)NCC1CC1

| screen / no. | 48 | 41 | 54 | 42 | 52 | 51 |
| --- | --- | --- | --- | --- | --- | --- |
| DUX4 txn inh | u | 7 | -4 | 5 | 1 | 2 |
| DUX4 txn inh difference | -14 | 31 | 4 | -7 | -10 | 1 |
| DUX4 txn inh control | 12 | -23 | -8.4 | 12 | 12 | 0.7 |

Next section:
no.	Compound	DUX4 txn inh	DUX4 txn inh difference	DUX4 txn inh control
61	CCCNC(=O)N1[C@H](CO)[C@@H](c2ccccc2-c2ccccc2F)[C@@H]1C#N	0	5	-5.5
62	CN1c2ccc(-c3ccc(C#N)cc3)cc2[C@@H]2[C@@H](CCN2C(=O)CN2CCOCC2)[C@H]1CO	-7	-11	3.9
63	C[C@@H]1CN([C@@H](C)CO)C(=O)Cc2cc(NC(=O)Cc3cn(C)c4ccccc34)ccc2O[C@H]1CN(C)S(=O)(=O)c1cccs1	-3	-1	-2.2
64	COc1ccc(S(=O)(=O)Nc2ccc3c(c2)C(=O)N([C@H](C)CO)C[C@H](C)[C@H](CN(C)C(=O)Nc2c(C)noc2C)OCCCC[C@H](C)O3)cc1	-3	-2	-1.6
65	COc1ccccc1-c1ccc(C2[C@H]3CNC[C@@H]2N3C(=O)Nc2ccccc2F)cc1 (some centres not stated)	13&14	-1&14	15&-0.3
66	CCCNC(=O)N1C[C@H](O)COC[C@H]2O[C@H](CC(=O)OC)CC[C@@H]21	9	10	-1.1
67	C[C@H]1CN([C@@H](C)CO)C(=O)CCCn2nncc2CO[C@@H]1CN(C)C(=O)Nc1ccc(F)cc1	-2	-1	-0.3
68	O=C(CC(F)(F)F)N1C[C@H]2[C@@H](c3ccccc31)[C@@H](CO)N2C(=O)c1cccnc1	3	7	-3.9
69	C[C@@H]1CN([C@@H](C)CO)C(=O)c2cc(-c3cccc(C#N)c3)cnc2O[C@@H]1CN(C)Cc1ccc(F)cc1	-1	5	-5.6
70	COc1ccc(C#Cc2ccc([C@@H]3[C@H](CO)N4CCCCN(Cc5ccccc5F)C[C@@H]34)cc2)cc1	u	x	x
71	O=C(C[C@@H]1C[C@H]2c3cc(NC(=O)NC4CCCC4)ccc3O[C@H]2[C@H](CO)O1)NCC1CC1	3	6	-3.2
72	CCC(=O)N1CC[C@H]2[C@H](CO)Nc3ccc(-c4ccc(C(=O)N(C)C)cc4)cc3[C@H]21	11	0	11
73	C[C@H]1CN([C@@H](C)CO)C(=O)c2ccccc2-c2ccccc2CO[C@@H]1CN(C)C(=O)NC1CCCCC1	-9	-8	-1.3

Not all compounds are listed; the hit share may differ from the screen's.
